# Screens as filed in PubChem.
# ClpP mod – qHTS Assay for Activators of ClpP; Potency, µM (titrated, usually from 57.5 µM), for the others: top-dose activity change, negative = active; 340,000 compounds, 1.9% hits; purified B. subtilis ClpP, FRET peptide cleavage, 20 min; AID 651965, 2013; active = well fitted falling curve with a large enough effect; inconclusive = small, poorly fitted or top-dose-only effect; inactive = no such curve, though single readings can be large or run the other way; note: potency is the fitted concentration of half-maximal effect; the source files actives as falling curves though it sought activators and does not explain the sign; nearly all actives have a fitted effect of over 65% in size; many hits overshoot -100%
# Target sequence (P80244 whole entry, looked up): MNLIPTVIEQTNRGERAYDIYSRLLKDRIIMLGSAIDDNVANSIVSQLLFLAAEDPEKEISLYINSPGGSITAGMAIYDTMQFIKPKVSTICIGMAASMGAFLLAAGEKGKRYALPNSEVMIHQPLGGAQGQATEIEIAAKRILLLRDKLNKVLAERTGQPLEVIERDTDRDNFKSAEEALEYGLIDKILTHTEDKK
#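 FRET quenching reversal measured ClpP activation: 10 microg/mL B. subtilis ClpP at pH 8 with the FRET-FV decapeptide, read at 430 nm after 320 nm excitation. The 20-min minus 0-min signal was scaled between DMSO/no-enzyme wells and ADEP (5.8 microM final).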
# TRPML1 inh – inhibitors of human TRPML1 channel | Q9GZU1 | TRPML1-inducible cells, Ca2+ dye fluorescence, FDSS; stronger effect = lower value; inhibition of EC80 agonist-evoked calcium signal | activity change, negative = inhibition, % (no concentration beside the values) | 390,000 compounds, 0.02% hits; in the data active means activity change below about -50%; inconclusive means about -30% to -50%; inactive means above about -30%;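 note: stimulus is agonist 54-4 at its EC80 concentration; % is set by controls: 0 for no effect and ±100 for the full control effect; compound concentration not given in the record; the text of the record puts the active cut at -80%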
# Target sequence (Q9GZU1 whole entry, looked up): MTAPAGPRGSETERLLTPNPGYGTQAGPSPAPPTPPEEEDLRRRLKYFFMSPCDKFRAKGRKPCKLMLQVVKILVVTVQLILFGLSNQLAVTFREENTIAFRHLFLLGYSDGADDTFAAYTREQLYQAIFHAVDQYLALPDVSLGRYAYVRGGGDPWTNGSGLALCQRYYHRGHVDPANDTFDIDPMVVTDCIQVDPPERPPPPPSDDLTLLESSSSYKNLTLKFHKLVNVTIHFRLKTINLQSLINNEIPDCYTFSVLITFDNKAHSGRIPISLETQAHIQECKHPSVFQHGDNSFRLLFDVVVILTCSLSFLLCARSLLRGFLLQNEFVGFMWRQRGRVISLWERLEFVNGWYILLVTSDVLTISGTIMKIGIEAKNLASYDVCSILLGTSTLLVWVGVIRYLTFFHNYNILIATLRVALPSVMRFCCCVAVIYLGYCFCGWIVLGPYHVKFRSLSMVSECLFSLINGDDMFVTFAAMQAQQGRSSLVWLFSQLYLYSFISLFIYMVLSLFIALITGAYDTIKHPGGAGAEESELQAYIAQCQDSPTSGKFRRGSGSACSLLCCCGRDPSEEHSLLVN
#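 Calcium fluorescence in TRPML1-DL cells induced overnight with Tet: a 110 s read after compound pin addition, then a 110 s antagonist read after challenge with 54-4 at 4 uM final (EC80).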
# PINK1 modulator – PINK1 expression modulation; PINK1 immunofluorescence, high-content cytometry, 24 h; Potency, µM (series often up to 76.6 µM), for the others: at the highest dose activation (PINK1 increase), usual class: activators; 410,000 compounds, 0.2% hits; AID 624263; active = well fitted activation curve with a large enough effect; inconclusive = small, poorly fitted or top-dose-only effect; inactive = flat fitted curve, though single readings scatter; cell line not stated here;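 note: potency is the fitted concentration of half-maximal effect; % of control where 0% means no effect; nearly all actives have a fitted effect of over 65% in size; a mitochondrial uncoupler was the plate control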
#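 Stable cell line, 250 cells/well, 12 h attachment; compounds pinned at 5 concentrations, 24 h; CCCP control. Fixed with nuclear dye, primary antibodies 12 h at 10 degrees C, secondary plus cell stain; laser-scanning cytometer read.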
# Menin MLL FP FL – menin-MLL binding inhibition, fluorescein peptide; Fluorescence polarization, fluorescein-MLL peptide displacement from menin; FP activity change, % at 61.4 µM; 290,000 tested, under 10 active; inconclusive = falling polarisation curve, or a change in total fluorescence; inactive = total fluorescence flat and polarisation flat or rising; no compound was filed as active; the % refers to the polarisation; negative = inhibition;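 note: % of control where 0% means no effect; inhibitors lower the polarisation; unlabelled MLL peptide was the positive control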
# Sfp inh – inhibitors of Bacillus subtilis Sfp phosphopantetheinyl transferase. 310,000 compounds, 3.5% hits. Biochemical Sfp PPTase activity, qHTS. Potency, µM, without a hit: max response, negative = inhibition, usual class: inhibitors. Q9F4F7. AID 1490; active = well fitted inhibition curve with a large enough effect; inconclusive = small, poorly fitted or top-dose-only effect, or another doubt; inactive = no such curve, though single readings can be large or run the other way;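 note: the enzyme is Sfp with the accession as filed and its product quenches rhodamine fluorescence; potency is the fitted concentration of half-maximal effect; 0% = enzyme reaction without inhibitor and -100% = no enzyme wells; top concentration of the series not given in the record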
#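 Step 1, compound plus 15 nM Sfp-PPTase, 15 min, room temperature. Step 2, add rhodamine-CoA (5 uM) and BHQ-2-YbbR (12.5 uM). Step 3, read 525/598 nm fluorescence at 0 and 30 min.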
# TRPML1 agonist – activates the human TRPML1 channel. AID 624414. Q9GZU1. activation, % (test concentration not listed). TRPML1-expressing cells, Ca2+ dye fluorescence, FDSS; host cell line not named in the record; reference of the full effect not given here. 410,000 compounds, 0.12% hits; in the data active = activation above about 50%; inconclusive = about 30% to 50%; inactive = below about 30%; note: 0% is about no effect; the text of the record puts the active cut at 80%
#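 Tetracycline-induced TRPML1-DL cells are seeded and incubated overnight before loading with a no-wash Ca2+ dye and quencher. Agonist activity is taken from the 110 s fluorescence read following compound pin-transfer on an FDSS, before EC80 54-4 challenge.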
# TRPV1 PAM – enhances activation of the human vanilloid receptor TRPV1. TRPV1-expressing cells, Fluo-8 calcium influx, capsaicin EC20 potentiation; host cell line not named in the record; control for the full effect not named in the record. potentiation, % at 8.33 µM. 320,000 compounds, 0.02% hits. AID 540277; active means potentiation above 80%; inconclusive means 30% to 80%; inactive means below 30%; note: 0% is about no effect
#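 Fluo-8 calcium influx in TRPV1-expressing cells, kinetic read (ex 480/em 520 nm). Compound added and read 3 min for agonist activity, followed by capsaicin at EC20 final and 2 min further read for enhancement.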
# Active calls of the source: *; ? = inconclusive; / = not tested or not shown; [ ] = remark or other dose.
# Results follow in this order: ClpP mod	TRPML1 inh	PINK1 modulator	Menin MLL FP FL	Sfp inh	TRPML1 agonist	TRPV1 PAM
- O=[N+]([O-])c1ccc(OCc2nnc(-c3ccccc3)o2)cc1
→ /	8.4	13.5%	0.3	9.0%	0.7	-15.1
- COc1ccccc1C(=O)NCCC(=O)Nc1ncccc1O
→ 0.9%	4.0	-0.6%	/	7.2%	0.0	6.3
- CCN(CC)CCN(C(=O)c1ccc(CN2CCCCC2)o1)C(C(=O)NC1CCCCC1)c1ccc(F)cc1 (configuration not stated)
→ /	48.7	-1.7%	0.7	?	-0.5	1.6
- Cc1ccc(S(=O)(=O)c2ccc(C)cc2)cc1
→ 0.1%	1.0	-1.5%[38.3 µM]	-1.7	-3.5%	0.0	6.6
- Cc1ccccc1-c1nc(CS(=O)(=O)CC(=O)NCCN2CCCC2)c(C)o1
→ -4.3%	10.6	-0.5%	-0.3	5.0%	-1.1	12.1
- COc1ccccc1N1CCN(C2CCCN(C(=O)c3snnc3C)C2)CC1 (configuration not stated)
→ 0.0%	-11.3	-1.7%	/	16.3%	-0.6	-3.0
- Cc1ccc(-c2cc(C(=O)Nc3cccnc3)c3ccccc3n2)o1
→ -6.8%	-18.0	/	1.1	?	0.0	-7.2
- CCCSc1nc(C)nc2c1c(=O)n(C)c(=O)n2C
→ /	/	/	3.4	11.1%	/	26.4
- CCc1ccccc1NC(=O)c1ccc2c(c1)N(Cc1cc(C)ccc1C)C(=O)c1ccccc1S2(=O)=O
→ 2.8%	8.7	-0.5%	/	/	2.3	/
- O=C(O)CCCN1C(=O)C(=O)/C(=C(/O)c2ccc(Cl)cc2)C1c1ccccc1 (configuration not stated)
→ 0.6%	5.0	-1.8%	-1.4	19.0%	0.2	4.3
- COc1cccc2cc(/C(=N/O)c3ccc(Br)cc3)oc12
→ -6.4%	13.3	0.1%	3.6	4.3%	3.0	8.0
- Cc1cc(OCCN2CCN(S(=O)(=O)c3ccccc3F)CC2)ccc1C(C)C
→ 1.4%	9.4	1.0%	/	/	1.3	-17.1
- O=C(Nc1cccc(O)c1)c1cccc(S(=O)(=O)N2CCCC2)c1
→ -0.6%	-5.9	4.3%	5.9	-2.7%	-0.4	-5.3
- Nc1ccc(Cl)c(S(=O)(=O)Nc2ccccc2Cl)c1
→ /	4.6	0.3%	0.8	11.4%	-1.3	-4.7
- COC(=O)c1cc(NC(=O)c2sc3ncn(Cc4cccc(F)c4)c(=O)c3c2C)cc(C(=O)OC)c1
→ ?	1.8	1.6%	/	/	2.0	/

# Structures listed so far with a furan ring, fused or not:
# Results follow in this order: ClpP mod	TRPML1 inh	PINK1 modulator	Menin MLL FP FL	Sfp inh	TRPML1 agonist	TRPV1 PAM
- CCN(CC)CCN(C(=O)c1ccc(CN2CCCCC2)o1)C(C(=O)NC1CCCCC1)c1ccc(F)cc1 (configuration not stated)
→ /	48.7	-1.7%	0.7	?	-0.5	1.6
- Cc1ccc(-c2cc(C(=O)Nc3cccnc3)c3ccccc3n2)o1
→ -6.8%	-18.0	/	1.1	?	0.0	-7.2
- COc1cccc2cc(/C(=N/O)c3ccc(Br)cc3)oc12
→ -6.4%	13.3	0.1%	3.6	4.3%	3.0	8.0

# Remaining list, next part
# Results follow in this order: ClpP mod	TRPML1 inh	PINK1 modulator	Menin MLL FP FL	Sfp inh	TRPML1 agonist	TRPV1 PAM
- O=C(CSCCO)Nc1cccc([N+](=O)[O-])c1
→ 4.3%	-21.2	-0.8%	8.2	1.9%	-0.2	-29.1
- Cc1c(C(=O)N2CCC(C)CC2)c(S(=O)(=O)NCc2ccccc2)c(C)n1C
→ -0.3%	-4.6	-0.5%	/	/	1.4	/
- Cc1cc(C(=O)Nc2cccc(O)c2)co1
→ -1.8%	59.3	0.0%	5.1	2.2%	-0.2	-30.5
- CCOC(=O)C1CCCN(C(=O)C2CCN(c3nnc(-n4cccc4)s3)CC2)C1 (configuration not stated)
→ 1.0%	-5.4	-0.1%	1.1	-3.7%	-0.3	1.8
- CCN(CC)c1ccc2cc(-c3nc(-c4cccs4)no3)c(=O)oc2c1
→ ?	-14.3	23.7%	/	/	23.7	/
- CC(=O)c1ccc(NC(=O)CSc2cn[nH]n2)cc1
→ /	16.4	4.4%	-1.2	11.2%	0.7	2.5
- Cc1nc2sc3c(c2c(=O)o1)CCC3
→ ?	12.2	1.9%	6.3	15.8µM*	0.2	7.6
- COc1cccc(CNC(=O)CCC2CCCN(C(=O)c3cc4ccccc4o3)C2)c1 (configuration not stated)
→ /	-6.7	-1.0%	-6.4	-0.8%	2.3	-3.1
- CCn1c(SCc2nc3ccccc3[nH]2)nnc1-c1cccnc1
→ -2.3%	17.8	3.8%[38.3 µM]	-1.4	6.9%	2.0	-4.8
- CCOC(=O)c1c(C)[nH]c(C(=O)CN2C(=O)NC(C)(c3ccc4ccccc4c3)C2=O)c1C (configuration not stated)
→ -2.8%	5.4	5.5%[38.3 µM]	4.4	18.6%	1.3	16.9
- CSCC[C@H](NC(=O)c1cccnc1)c1nnc2ccccn12
→ ?	-21.9	0.6%	/	6.7%	-0.2	9.6
- COCCCNC(=O)C1c2ccccc2Oc2ccccc21
→ 1.3%	-23.8	0.6%	2.6	26.3%	-1.0	9.7
- O=C(CCCN1C(=O)CCC1=O)Nc1ccc2c(c1)OCO2
→ -4.2%	18.0	-0.2%	5.9	3.5%	0.5	5.3
- COc1cccc(CC2(CO)CCN(Cc3cccn3-c3cccnc3)CC2)c1
→ /	19.8	0.2%	-2.1	9.2%	0.0	-11.2
- CCc1cccc(C)c1NC(=O)CN(C)C1=NS(=O)(=O)c2ccccc21
→ -0.4%	18.0	1.9%	/	/	-0.7	25.0
- COc1cccc(C(=O)Nc2cc3c(cc2N2CCOCC2)n(C)c(=O)n3C)c1
→ -1.2%	-7.8	0.3%	/	-2.5%	-1.2	9.3
- Cn1nc(C(F)(F)F)c2cc(C(=O)NC3CC3)sc21
→ -0.3%	4.8	-0.1%	3.5	8.1%	-0.7	1.5
- CN(C)CCN1C(=O)CCC2(C)C1=CCC1C2CCC2(C)C1CCC2(C)O (configuration not stated)
→ 0.1%	-11.9	-1.0%	/	/	0.3	/
- CN(CC(=O)Nc1ccc(F)cc1)C(=O)c1cc(-c2ccco2)nc2ccccc12
→ /	1.3	-3.2%	/	/	1.3	-5.5
- CCC(C(=O)OCC(=O)N(CCOC)c1c(N)n(Cc2ccccc2)c(=O)[nH]c1=O)c1ccccc1 (configuration not stated)
→ 0.9%	16.8	2.3%	/	7.2%	-0.2	7.2
- CN(Cc1cccnc1)Cc1cn(C)nc1-c1ccc(Oc2ccccc2)cc1
→ /	3.2	1.4%	2.8	13.8%	0.7	-0.9
- COc1c(C)cccc1C(=O)Nc1ccc(N2CCOCC2)c(Cl)c1
→ -0.6%	22.1	1.5%	-5.0	-2.3%	-0.5	9.2
- Cc1cccc(C(C#N)c2nc3ccccc3nc2C(F)(F)F)c1 (configuration not stated)
→ -0.7%	7.9	9.7%	/	/	-0.4	/
- CCc1nc(C)cn1S(=O)(=O)c1cc([N+](=O)[O-])ccc1Cl
→ /	-0.6	1.8%	-2.3	12.1%	-0.5	10.4
- COc1ccc2c(C)cc(=O)[nH]c2c1
→ -21.8%	6.4	1.6%	2.6	4.6%	0.5	-4.4
- C/C(=N\OC(=O)c1ccc(Cl)c(Cl)c1)c1sc(C)nc1C
→ 0.8%	5.9	-1.8%	0.8	?	-0.3	-2.3
- CC(Oc1cccc(F)c1)C(=O)/C=C\N(C)C (configuration not stated)
→ 0.9%	1.6	9.8%[38.3 µM]	-2.3	-1.2%	0.7	2.8
- CCCCNc1c(-c2cccnc2)nc2nc(C)cc(C)n12
→ -7.4%	/	-1.1%	/	/	-0.4	/
- Cc1[nH]c2ccccc2c1C(=O)C(=O)N1CCN(c2ccccc2F)CC1
→ 1.3%	28.3	3.7%	/	9.0%	0.3	-8.3
- Cc1ccnc(NC(=O)CCC(=O)N(CC(=O)NC2CCCCC2)Cc2ccc3c(c2)OCO3)c1
→ /	/	/	2.9	13.2%	/	6.4

# Profiles from above. Screens in order: ClpP mod | TRPML1 inh | PINK1 modulator | Menin MLL FP FL | Sfp inh | TRPML1 agonist | TRPV1 PAM
# Shown for `Cc1[nH]c2ccccc2c1C(=O)C(=O)N1CCN(c2ccccc2F)CC1` → 1.3% | 28.3 | 3.7% | / | 9.0% | 0.3 | -8.3
# Shown for `CCC(C(=O)OCC(=O)N(CCOC)c1c(N)n(Cc2ccccc2)c(=O)[nH]c1=O)c1ccccc1` (configuration not stated) → 0.9% | 16.8 | 2.3% | / | 7.2% | -0.2 | 7.2
# Shown for `COc1ccc2c(C)cc(=O)[nH]c2c1` → -21.8% | 6.4 | 1.6% | 2.6 | 4.6% | 0.5 | -4.4

# The list goes on:
# Results follow in this order: ClpP mod	TRPML1 inh	PINK1 modulator	Menin MLL FP FL	Sfp inh	TRPML1 agonist	TRPV1 PAM
- COc1cc(/C=N/n2nnnc2N)cc(Cl)c1OC
→ /	-16.7	-0.1%	/	/	1.7	/
- N#Cc1cnc(NCc2ccc(Cl)cc2Cl)nc1
→ -11.6%	-24.7	3.5%	7.0	4.3%	1.9	-21.1
- CCOC(=O)c1nn(-c2ccc(OCC)cc2)c2nc(-c3cccc(OC)c3)c(C#N)c(=O)n12
→ ?	-3.6	-1.9%	-0.7	2.4%	0.5	-9.6
- CC(=O)N1c2ccccc2[C@H](C)[C@H]1C
→ -1.2%	8.6	-1.5%	/	/	0.0	9.3
- Cc1ccccc1NC(=S)N(CCCN1CCCCC1)Cc1ccco1
→ -1.8%	22.3	-0.5%	0.3	15.7%	-1.0	4.3
- COC(=O)c1nn(-c2ccccc2)c(Sc2ccc(Cl)cc2)c1/C=N/O
→ -0.9%	3.8	2.0%	-0.1	3.7%	3.3	13.3
- CC(=O)NNc1nc(-c2ccccc2)c2cc(Cl)ccc2n1
→ 0.4%	1.2	1.2%	/	/	-0.1	/
- CCOC(=O)c1c(-c2ccc(C)s2)csc1NC(=O)c1ccco1
→ /	/	/	3.5	12.8%	/	-7.8
- Cc1onc(-c2ccccc2)c1C(=O)Nc1cccc2nsnc12
→ -8.4%	12.2	11.3%	-1.2	9.0%	1.1	-31.5
- O=C(CNC(=O)Cc1ccccc1)N=Nc1c(O)[nH]c2ccccc12
→ /	34.1	4.9%	1.8	15.1%	0.7	24.2
- NS(=O)(=O)c1ccc(CNC(=O)/C=C/c2c(Cl)cccc2Cl)cc1
→ /	/	/	1.9	7.8%	/	-9.0
